CtBP-E1A inh = blocks the CtBP interaction with E1A | AlphaScreen GST-E1A/His-CtBP binding, 1536-well; active compounds read low; control for the full effect not named in the record | activity change, % (no concentration beside the values) | hit rate 0.49% among 340,000 | AID 651724; in the data active means activity change below about -65%; inconclusive means about -30% to -65%; inactive means above about -30%; also: % is scaled to controls: 0 for no effect and ±100 for the full control effect
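GST-E1A and His-tagged CtBP (125 nM each as 5X stock) were preincubated with pin-transferred compound for 2 h at 37 °C in the dark, then glutathione donor and nickel acceptor beads were added for 1 h before AlphaScreen reading.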
Sfp PPTase inh = Sfp phosphopantetheinyl transferase inhibition. AID 1490. hit rate 3.5% among 310,000. Potency, µM, for the others: max response, negative = inhibition, hits mostly inhibitors. Biochemical Sfp PPTase activity, qHTS; active = well fitted inhibition curve with a large enough effect; inconclusive = small, poorly fitted or top-dose-only effect, or another doubt; inactive = no such curve, though single readings can be large or run the other way;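 also: the enzyme is Sfp with the accession as filed and its product quenches rhodamine fluorescence; potency is read from the fitted curve at half-maximal effect; 0% = enzyme reaction without inhibitor and -100% = no enzyme wells; top concentration of the series not given in the record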
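Fluorescence-quenching assay: 15 nM Sfp-PPTase preincubated 15 min at room temperature with compound, then 5 uM rhodamine-CoA and 12.5 uM BHQ-2-labelled YbbR peptide added. Fluorescence (ex 525/em 598 nm) read at start and after 30 min; difference gives rate.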
TRPV1 potentiator = potentiators of human vanilloid receptor 1 (TRPV1); Q8NER1; TRPV1-expressing cells, Fluo-8 calcium influx, capsaicin EC20 potentiation; host cell line not named in the record; control for the full effect not named in the record; potentiation, % at 8.33 µM; hit rate 0.02% among 320,000; AID 540277; active means potentiation above 80%; inconclusive means 30% to 80%; inactive means below 30%; also: 0% is about no effect
Target sequence (Q8NER1 whole entry, looked up): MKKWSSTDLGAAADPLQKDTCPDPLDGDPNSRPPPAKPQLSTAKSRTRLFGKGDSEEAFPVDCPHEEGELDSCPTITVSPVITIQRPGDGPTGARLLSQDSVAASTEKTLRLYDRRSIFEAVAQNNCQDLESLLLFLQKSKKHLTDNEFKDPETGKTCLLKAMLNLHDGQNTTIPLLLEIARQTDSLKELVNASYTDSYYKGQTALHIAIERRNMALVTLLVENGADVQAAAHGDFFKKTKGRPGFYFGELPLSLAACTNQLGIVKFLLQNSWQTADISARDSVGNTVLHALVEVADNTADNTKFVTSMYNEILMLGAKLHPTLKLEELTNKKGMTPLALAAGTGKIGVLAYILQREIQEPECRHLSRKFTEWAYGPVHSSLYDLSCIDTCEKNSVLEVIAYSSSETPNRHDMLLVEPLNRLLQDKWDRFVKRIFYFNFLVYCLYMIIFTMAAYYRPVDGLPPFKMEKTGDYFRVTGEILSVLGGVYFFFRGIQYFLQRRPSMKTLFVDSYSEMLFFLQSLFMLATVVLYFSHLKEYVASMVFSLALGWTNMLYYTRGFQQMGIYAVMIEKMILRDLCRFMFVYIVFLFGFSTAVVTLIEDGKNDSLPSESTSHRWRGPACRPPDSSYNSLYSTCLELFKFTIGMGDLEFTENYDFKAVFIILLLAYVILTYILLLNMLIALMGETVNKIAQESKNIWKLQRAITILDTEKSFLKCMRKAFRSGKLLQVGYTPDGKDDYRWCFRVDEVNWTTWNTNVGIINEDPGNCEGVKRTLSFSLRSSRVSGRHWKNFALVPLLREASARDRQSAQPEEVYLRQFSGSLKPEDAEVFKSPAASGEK
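Fluo-8 calcium influx in TRPV1-expressing cells, kinetic read (ex 480/em 520 nm). Compound added and read 3 min for agonist activity, followed by capsaicin at EC20 final and 2 min further read for enhancement.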
PINK1 expr mod = modulators of PINK1 expression; AID 624263; Potency, µM (series often up to 76.6 µM), for the others: at the top dose activation (PINK1 increase), usual class: activators; hit rate 0.2% among 410,000; PINK1 immunofluorescence, high-content cytometry, 24 h; active = well fitted activation curve with a large enough effect; inconclusive = small, poorly fitted or top-dose-only effect; inactive = flat fitted curve, though single readings scatter; cell line not stated here;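 also: potency is read from the fitted curve at half-maximal effect; % of control where 0% means no effect; nearly all actives have a fitted effect of over 65% in size; a mitochondrial uncoupler was the plate control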
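Stable cell line treated 24 h with compounds at 5 concentrations (CCCP controls), then fixed and immunostained for PINK1 plus nuclear and cell stains; PINK1 immunofluorescence quantified by laser-scanning microplate cytometry.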
D2 potentiator = positive allosteric modulators of human D2 dopamine receptor | P14416 | DiscoveRx D2 beta-arrestin cells, luminescence, 90 min; 100% = 57 uM dopamine signal | potentiation, % (no concentration beside the values) | hit rate 0.23% among 360,000 | AID 624464; active = potentiation of 50% or more; inconclusive = 30% to 50%; inactive = 30% or less;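 also: compound concentration not given in the record; tested on top of an EC20 dose of dopamine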
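D2 cells co-treated with compound plus 50 nM dopamine (EC20) for 90 min at 37 deg C to detect potentiation. Beta-arrestin recruitment was read as enzyme-fragment luminescence after 1 h at ambient temperature. Full response was set by 57 uM dopamine.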
Six1-Eya2 inh = inhibitors of human Six1/Eya2 interaction. hit rate 0.56% among 360,000. AID 651725. Q15475+O00167. activity change, % (no concentration beside the values). AlphaScreen GST-Six1/His-Eya2 binding, biochemical; active compounds read low; control for the full effect not named in the record; in the data active = activity change below about -65%; inconclusive = about -30% to -65%; inactive = above about -30%; also: % is scaled to controls: 0 for no effect and ±100 for the full control effect
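Six1/Eya2 binding was read as AlphaScreen signal after compounds were pinned into GST-Six1 plus His-tagged Eya2 (5X stock 250/500 nM) in pH 8.0 Tris/NaCl/TCEP buffer, beads added, then incubated 1 h, 37 C, dark.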
D2 ag = agonists of human D2 dopamine receptor (beta-arrestin) | activation, % (no concentration beside the values) | hit rate 0.084% among 360,000 | P14416 | DiscoveRx PathHunter D2 beta-arrestin, luminescence, 90 min; 100% = 57 uM dopamine signal; in the data active = activation above about 40%; inconclusive = about 15% to 40%; inactive = below about 15%; also: compound concentration not given in the record; the text of the record calls up to 30% inactive
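DiscoveRx PathHunter D2 beta-arrestin cells (2,100/well) attached overnight, then compound-stimulated 90 min at 37 C in HBSS/10 mM HEPES/0.1% Tween-20 buffer; beta-galactosidase complementation read by luminescence after 1 h at ambient temperature. Dopamine 57 uM final (EC100) as control.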
Active calls of the source: *; ? = inconclusive; / = no result given; & = joins results of further samples. No enrichment for hits (roughly 3.7% active in at least one column).

SMILES	CtBP-E1A inh	Sfp PPTase inh	TRPV1 potentiator	PINK1 expr mod	D2 potentiator	Six1-Eya2 inh	D2 ag
Cc1cc(C)c(NC(=O)c2oc3ccccc3c2COc2ccccc2)c(C)c1	2.6	-4.3%	19.1	7.1%	-7.8	-10.0	-1.3
Cc1ccc(N2/C(=N/c3nc(C)cc(C)n3)NC(=O)CC2C(=O)O)cc1 (stereo unspecified)	3.5	12.7%	3.6	?	-0.6	-0.3	-1.0
Cc1ccc(OCC(=O)N(C)CC(=O)Nc2cccc(F)c2)cc1	-4.7	9.1%	-4.3	-0.7%	9.1	2.2	-3.8
COc1ccc(N(CC(=O)O)S(=O)(=O)c2ccccc2[N+](=O)[O-])c(OC)c1	/	6.3%	11.5	-0.1%	-27.4	1.3	1.9
CC(Sc1nnc(Nc2ccccc2F)s1)C(=O)NC1CC1 (stereo unspecified)	2.4	/	15.1	3.2%	-1.8	2.1	-2.3
CCOC(=O)c1nn(-c2ccccc2C)c(=O)cc1OCC(=O)N1CCN(c2ccccc2)CC1	11.7	/	-2.6	3.7%	-20.7	3.7	1.5
O=C(NC1CCCc2c1cnn2-c1ccc(F)cc1F)c1ccccn1 (stereo unspecified)	3.2	3.8%	-3.2	3.3%	-3.8	-1.7	2.5
CC1(C)CC(=O)C(C(C2=C(O)CC(C)(C)CC2=O)c2ccc(Cl)c([N+](=O)[O-])c2)C(=O)C1 (stereo unspecified)	-1.7	24.4%	3.0	0.6%	-8.5	-9.2	-2.6
COc1cc(/C=C2\CCC/C(=C\c3ccc(O)c(OC)c3)C2=O)ccc1O	0.0	-6.7%&-18.6%	17.7	-1.5%&0.8%	11.7	1.3	-2.0
Cc1occc1C(=O)Nc1ccccc1NC(=O)c1ccoc1C	-5.4	/	/	2.6%	-6.2	-6.3	-0.8
CNC(=O)CN(c1cccc2ccccc12)S(C)(=O)=O	3.2	1.5%	3.4	3.9%	-5.4	3.3	-2.6
CCOC(=O)c1cocc1C(=O)O	0.0	/	/	-4.8%	-8.1	12.6	-1.6
CCCCc1cc(=O)oc2cc(OC(C)C(=O)NCc3ccccn3)c(Cl)cc12 (stereo unspecified)	2.3	1.5%	-8.6	-1.7%	-4.0	2.2	1.4
Oc1cc(CNCc2ccccc2)c(O)cc1CNCc1ccccc1	-11.5	/	/	4.5%	3.7	-10.3	8.3
COc1cc([C@@H]2[C@H]3CNCC=C3C(C#N)=C(N)C2(C#N)C#N)ccc1OC(C)C	-7.0	-4.3%	-5.1	5.4%	-31.8	-8.7	-4.4
CCN(CC)S(=O)(=O)c1ccc(N2CCCC2)c(NS(=O)(=O)c2ccc([N+](=O)[O-])cc2)c1	-3.6	15.6%	-1.4	0.4%	-0.7	-9.0	0.5
CC(C)N1CCN(C2CSCCSC2)CC1CCO (stereo unspecified)	-0.2	18.4%	2.2	-0.1%	-9.1	-2.3	-3.9
COc1cccc(NC(=O)Cc2csc(NC(=O)Nc3ccccc3OC)n2)c1	-4.7	/	-5.4	6.5%	3.7	-10.9	2.1
Cc1cccn2c(=O)nc(SCC(=O)N3CCN(c4ccccc4)CC3)nc12	-22.8	/	12.7	5.6%	-22.4	-4.9	-2.2
CCCN1C(=O)C2(C(C(=O)c3ccc(C)o3)=C(O)C(=O)N2CCCOC)c2ccccc21 (stereo unspecified)	5.3	-1.8%	-10.5	3.3%	-6.1	-10.3	-5.9
FC(F)(F)c1ccccc1CN1CCCC(N2CCN(c3ccccc3)CC2)C1 (stereo unspecified)	-11.5	12.8%	2.9	?	-15.4	-24.2	-1.1
Cc1ccc(/C=N/NC(=O)c2nnn(-c3nonc3N)c2CSc2ccccc2)cc1	-4.4	9.6%	-1.7	5.6%	-5.4	1.7	-4.5
CN(C)CCCN1CC(C(=O)O)CC1=O (stereo unspecified)	5.9	22.0%	1.0	?	-1.2	4.6	-0.8
Cc1ccc(C2=NN(C(=O)c3cccs3)C(c3ccccc3O)C2)cc1 (stereo unspecified)	7.2	14.2%	6.2	1.6%	-8.2	-3.3	1.7
O=C(Cn1ccc(C(F)(F)F)n1)Nc1cccc(S(=O)(=O)N2CCCCC2)c1	0.3	20.7%	1.3	0.8%	0.0	0.3	0.0

The results go on:
SMILES	CtBP-E1A inh	Sfp PPTase inh	TRPV1 potentiator	PINK1 expr mod	D2 potentiator	Six1-Eya2 inh	D2 ag
CCc1ccccc1-n1c(SCC(=O)c2c(N)n(C3CC3)c(=O)[nH]c2=O)nnc1N1CCOCC1	4.8	/	-8.4	0.5%	-1.4	4.1	1.5
CCOc1ccc2nnc(-c3ccc(Br)cc3)n2n1	9.9	5.6%	-18.1	3.9%	-3.2	0.2	-1.9
CC1=CS(=O)(=O)CC1Sc1nc(C)n[nH]1 (stereo unspecified)	/	18.3%	-5.2	0.2%	-7.2	7.3	1.0
COc1ccc(-n2nc(C(=O)NCC(=O)NC3CCCCC3)c3ccccc3c2=O)cc1	0.0	2.6%	-0.1	1.8%	-0.8	7.5	-1.6
CCOC(=O)N1CCN(c2nc(C(F)(F)F)nc3c(C)cc(C)cc23)CC1	0.6	-29.2%	-20.3	-1.8%	-9.9	2.0	-0.7
O=C(NNC(=O)C1CC1c1ccccc1)c1ccccc1F (stereo unspecified)	1.5	9.1%	7.7	0.6%	-6.9	-0.7	-5.1
O=C(N/N=C/c1ccccc1F)c1ccccc1OCc1ccccc1	2.7	-5.8%	-9.1	5.4%	-6.5	-11.4	-0.5
O=C(COc1cccc(NC(=O)c2ccccc2)c1)c1ccccc1	-6.2	-2.8%	-24.1	1.8%	-1.6	4.4	-3.6
CC1CCc2c(sc(NS(=O)(=O)c3ccccc3)c2C(=O)OC(C)C)C1 (stereo unspecified)	5.9	?	5.4	-1.9%	-10.4	-3.4	-4.8
O=C(Nc1ccnn1C1CCN(C(=O)c2cccnc2)CC1)c1cccc(F)c1	2.9	/	/	2.0%	-10.0	0.3	0.0
CCc1ccccc1Nc1nc(N)nc(CSCC(=O)Nc2ccc(C)c(C)c2)n1	/	14.5%	7.6	-0.7%	-3.4	6.7	4.0
COc1ccc(C(=O)Nc2cccc(NC(C)=O)c2)cc1	0.5	/	/	1.4%	-3.9	0.1	3.8
COc1cccc(C2CC(c3cccc(OC)c3)n3nc(N)nc3N2)c1 (stereo unspecified)	0.0	12.6%	6.1	2.2%	-4.0	-0.3	-4.1
CCCCCC(=O)Nc1cccc2ccccc12	11.0	-9.2%	-16.0	1.4%	0.9	5.5	-2.0
Cc1ccccc1NC(=O)c1ccccc1-c1ccccc1	4.8	11.4%	17.9	-0.6%	-7.5	-0.3	1.6
O=C1CC/C=C\C[C@@H](CC(=O)N(CCO)Cc2ccccc2)C(=O)N2CCC[C@H]2CO1	5.9	/	/	-1.2%	-5.4	8.5	0.6
OCCC1CN(Cc2cccc3nonc23)CCN1Cc1ccsc1 (stereo unspecified)	13.0	9.8%	2.5	0.8%	-9.8	0.0	-2.3
CC(=O)Nc1ccc(NS(=O)(=O)c2cc([N+](=O)[O-])ccc2C)cc1	-4.4	8.6%	?	1.9%	-3.9	14.4	1.6
CSc1nnc(CNC(=O)c2ccccc2)n1-c1ccc(F)cc1	7.9	19.1%	1.3	0.2%	-5.3	2.0	-2.4
Nc1ccccc1SC(C[N+](=O)[O-])c1ccccc1 (stereo unspecified)	-19.9	7.94µM*	-2.6	2.0%	-15.7	-11.5	-5.0
COc1ccc(C(=O)Cn2c(C(=O)/C=C/c3ccccc3)nc3ccccc32)cc1	-6.1	-36.0%	-1.1	0.2%	0.1	-3.6	-3.5
CCCN(CC(=O)Nc1ccccc1C)C(=O)Cc1n[nH]c(=O)c2ccccc12	1.2	/	1.9	1.8%	-6.1	-0.4	-2.9
COc1ccc(C(=O)NCCCc2ccccc2)cc1	26.4	/	/	0.8%	-9.2	-1.8	-2.9
O=c1[nH]c2ccc([N+](=O)[O-])cc2[nH]1	-2.6	/	/	0.1%	-5.3	-0.4	-2.1
O=C(c1ccc(CSCc2ccccc2F)o1)N1CCN(c2ccc(N3CCOCC3)nn2)CC1	-28.6	-22.4%	-10.2	1.4%	3.0	-0.6	0.3

Other entries
SMILES	CtBP-E1A inh	Sfp PPTase inh	TRPV1 potentiator	PINK1 expr mod	D2 potentiator	Six1-Eya2 inh	D2 ag
NS(=O)(=O)c1cccc(NC(=O)c2cncc(Br)c2)c1	-0.1	4.3%	-3.3	-0.1%	-1.8	1.7	0.8
O=C1CCC[C@@H]2[C@H](Cc3ccccc3)[C@@H](O)C[C@@H]3CCN1[C@@H]32	3.1	/	/	0.9%	-12.1	2.0	0.9
Cc1ccc(Nc2nnc(SCC(O)=C(C#N)c3nc4ccccc4[nH]3)s2)c(C)c1	-18.1	/	/	0.2%	0.9	-21.3	1.8
COc1ccc(Br)cc1C(=O)Nc1ccc(C(=O)NCC(C)C)cc1	/	-3.2%	-8.7	-0.1%	?	-11.6	3.5
COCC(=O)Nc1ccc(N2CCOCC2)c(S(=O)(=O)Nc2ccc(OC)cc2)c1	6.2	/	/	13.3%	-0.9	1.6	-3.0
COCCCNc1nc2ccccc2nc1NS(=O)(=O)c1ccc(OC)cc1	1.7	9.5%	6.6	-1.5%	-12.2	-0.8	-1.8
CCC(=O)Nc1cc(=O)[nH]c2nc(-c3ccc(Cl)cc3)nn12	6.9	25.0%	2.3	0.5%	-5.9	-8.1	-5.6
COc1ccc(C(=O)NCCn2cc(SCC(=O)Nc3cc(C)on3)c3ccccc32)cc1OC	0.0	-0.8%	12.5	0.1%	14.9	-3.0	1.7
COCCNC(=O)[C@H]1N2C(=O)c3c(ccc(OC)c3OC)C2SC1(C)C (stereo partly specified)	4.4	-12.6%	4.0	5.2%	-12.0	6.5	1.0
COc1ccc(N2C(=O)CC(Sc3nccc(C)n3)C2=O)c(OC)c1 (stereo unspecified)	1.8	/	/	4.4%	1.4	-3.7	0.2
COc1cc2cc(CCCOC(=O)CCC(=O)O)oc(=O)c2cc1OC	?	/	2.5	0.1%	-3.6	-5.7	-5.8
COc1ccc2oc(=O)c(C(=O)Nc3cccc(C(C)=O)c3)cc2c1	/	-1.1%	28.6	4.8%	24.9	3.1	0.1
O=C(Cc1ncc(C(F)(F)F)cc1Cl)N1CCN(c2ccccn2)CC1	-4.9	-6.0%	/	-3.7%	-7.6	5.9	-3.5
COc1ccccc1NC(=O)Cn1cnc2c(oc3nc4c(cc32)CCCC4)c1=O	-8.1	15.4%	3.2	-1.3%	-10.6	-0.2	0.1

High-throughput results: PubChem BioAssay, National Center for Advancing Translational Sciences (NCATS)
